gsp ag = agonists of gsp mutant (McCune-Albright syndrome). gsp mutant cells, cAMP HTRF, 30 min; control for the full effect not named in the record. Potency, µM (titrated, usually from 76.9 µM), inactives show top-dose activation (cAMP increase), most hits filed as activators. 340,000 compounds, 0.13% hits; active = well fitted activation curve with a large enough effect; inconclusive = small, poorly fitted or top-dose-only effect, or another doubt; inactive = no such curve, though single readings can be large or run the other way; cell line not stated here;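 also: phosphodiesterase inhibitor Ro 20-1724 added with compounds to block cAMP breakdown; potency is read from the fitted curve at half-maximal effect; nearly all actives have a fitted effect of over 60% in size; about a fifth of the inactives were tested at one dose only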
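Cells in DMEM/10% FBS with G418 were pretreated with compounds in DMSO plus […] (300 uM stock) for 30 min at 37C. cAMP was measured by HTRF (cAMP-d2 plus anti-cAMP antibody-K) after 30 min at room temperature.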
TRPML1 blocker = blocks the human TRPML1 channel; AID 624415; activity change, negative = inhibition, % (test concentration not listed); 390,000 compounds, 0.02% hits; TRPML1-inducible cells, Ca2+ dye fluorescence, FDSS; hits give low values; inhibition of EC80 agonist-evoked calcium signal; in the data active means activity change below about -50%; inconclusive means about -30% to -50%; inactive means above about -30%;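 also: stimulus is agonist 54-4 at its EC80 concentration; % is scaled to controls: 0 for no effect and ±100 for the full control effect; compound concentration not given in the record; the text of the record puts the active cut at -80%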
Target sequence (Q9GZU1 whole entry, looked up): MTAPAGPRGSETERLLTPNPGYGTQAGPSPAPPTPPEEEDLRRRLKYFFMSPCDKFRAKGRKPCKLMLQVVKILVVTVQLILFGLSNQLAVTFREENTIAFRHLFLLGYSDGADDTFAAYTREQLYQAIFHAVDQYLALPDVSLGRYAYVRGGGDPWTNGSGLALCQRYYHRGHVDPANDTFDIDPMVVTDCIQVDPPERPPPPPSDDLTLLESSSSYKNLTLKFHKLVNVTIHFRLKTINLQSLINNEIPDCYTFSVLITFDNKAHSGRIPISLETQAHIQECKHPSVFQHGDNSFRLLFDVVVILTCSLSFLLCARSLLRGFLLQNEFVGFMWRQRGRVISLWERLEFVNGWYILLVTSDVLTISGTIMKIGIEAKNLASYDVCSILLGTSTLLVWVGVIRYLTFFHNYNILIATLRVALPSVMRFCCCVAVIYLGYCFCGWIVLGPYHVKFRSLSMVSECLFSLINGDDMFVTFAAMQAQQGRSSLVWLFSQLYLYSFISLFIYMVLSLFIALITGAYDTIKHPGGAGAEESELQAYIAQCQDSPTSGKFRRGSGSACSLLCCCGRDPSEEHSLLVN
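Tet-induced TRPML1-DL cells loaded with Ca8 no-wash calcium dye were read kinetically on FDSS. Compound addition was followed by EC80 agonist 54-4 (4 uM final); inhibition was read over 110 s.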
TRPML1 ag = human mucolipin-1 channel agonism | activation, % (no concentration beside the values) | 410,000 compounds, 0.12% hits | Q9GZU1 | TRPML1-expressing cells, Ca2+ dye fluorescence, FDSS; host cell line not named in the record; reference of the full effect not given here | AID 624414; in the data active = activation above about 50%; inconclusive = about 30% to 50%; inactive = below about 30%; also: 0% is about no effect; the text of the record puts the active cut at 80%
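Kinetic FDSS Ca2+ read in Tet-induced TRPML1-DL cells (ABD Ca8 dye plus quencher, 45-90 min RT loading): baseline, then compound, then 110 s agonist window; EC80 agonist 54-4 at 4uM final added afterwards for a 110 s antagonist window.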
gsp antag = gsp mutant antagonism. gsp-mutant cells, cAMP HTRF, 30 min; control for the full effect not named in the record. Potency, µM (series often up to 76.9 µM), for inactives: top-dose activity change, negative = inhibition, actives largely listed as inhibitors. 340,000 compounds, 0.4% hits; active = falling curve of any shape with a large fitted effect; inconclusive = falling curve, mostly with a smaller effect; inactive = flat or rising curve; cell line not stated here;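 also: intracellular cAMP measured with PDE inhibitor Ro 20-1724 present during compound exposure; potency is read from the fitted curve at half-maximal effect; % is scaled to controls: 0 for no effect and ±100 for the full control effect; nearly all actives have a fitted effect of over 65% in size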
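Cells in G418 medium, seeded 16-24 h, 37C; buffer exchange to DPBS + 1 mM CaCl2, 0.5 mM MgCl2, 0.05% BSA; cpds in DMSO + […] (300 uM stock), 30 min 37C; HTRF cAMP detection.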
Menin MLL FP FL = inhibitors of human menin-MLL interaction, wild-type MLL peptide; Fluorescence polarization, fluorescein-MLL peptide displacement from menin; FP activity change, % at 61.4 µM; 290,000 tested, under 10 active; AID 1766; inconclusive = falling polarisation curve, or a change in total fluorescence; inactive = total fluorescence flat and polarisation flat or rising; no compound was filed as active; the % refers to the polarisation; negative = inhibition;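 also: % of control where 0% means no effect; inhibitors lower the polarisation; unlabelled MLL peptide was the positive control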
ClpP mod = qHTS Assay for Activators of ClpP; Potency, µM (titrated, usually from 57.5 µM), for the others: at the top dose activity change, negative = active; 340,000 compounds, 1.9% hits; ATP-dependent Clp protease proteolytic subunit (Bacillus subtilis (strain 168)), P80244; purified B. subtilis ClpP, FRET peptide cleavage, 20 min; active = well fitted falling curve with a large enough effect; inconclusive = small, poorly fitted or top-dose-only effect; inactive = no such curve, though single readings can be large or run the other way; also: potency is read from the fitted curve at half-maximal effect; the source files actives as falling curves though it sought activators and does not explain the sign; nearly all actives have a fitted effect of over 65% in size; many hits overshoot -100%
Target sequence (P80244 whole entry, looked up): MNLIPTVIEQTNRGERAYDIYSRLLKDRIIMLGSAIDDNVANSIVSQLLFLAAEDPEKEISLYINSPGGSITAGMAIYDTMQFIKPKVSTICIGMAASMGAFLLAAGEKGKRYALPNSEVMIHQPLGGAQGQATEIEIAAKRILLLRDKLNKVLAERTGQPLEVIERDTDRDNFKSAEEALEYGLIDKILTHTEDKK
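FRET quenching reversal measured ClpP activation: 10 microg/mL B. subtilis ClpP at pH 8 with the FRET-FV decapeptide, read at 430 nm after 320 nm excitation. The 20-min minus 0-min signal was scaled between DMSO/no-enzyme wells and ADEP (5.8 microM final).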
Active calls of the source: *; u = inconclusive; x = not tested or not shown; [ ] = another dose, or the depositor's remark.

SMILES,gsp antag,TRPML1 ag,gsp ag,Menin MLL FP FL,TRPML1 blocker,ClpP mod
N#CC1=C(N)N(c2ccccc2)C(c2ccco2)C1(C#N)C#N (stereo unspecified),20.7%,-0.7,22.9%,-0.5,1.5,14.1µM*
CC1CCc2c(sc(NC(=O)C3CCCO3)c2C#N)C1 (stereo unspecified),-1.9%,-0.5,-6.3%[15.4 µM],2.4,-6.3,-1.3%
COc1cc2sc3ccc(C#CC4(O)CCCCC4)cc3c(=O)c2cc1OC,-21.3%,1.9,x,x,54.9,3.6%
O=C(COc1cccc2ccccc12)NCc1cccnc1,-4.1%,-1.4,2.2%[15.4 µM],-0.9,4.8,0.8%
CC1(C(=O)NS(=O)(=O)c2ccc(Cl)cc2)CCN1C(=O)c1ccccc1 (stereo unspecified),x,0.1,x,x,25.8,0.7%
CC1Cc2ccccc2N1C(=S)NC(=O)c1ccco1 (stereo unspecified),-12.6%,0.9,13.8%[15.4 µM],11.1,-6.6,x
COc1ccc(Nc2nc(N)c3ccccc3n2)c(OC)c1,-2.3%,-0.7,-62.5%[inhibitor],-1.9,-4.2,x
CC(=O)c1ccc(N2CCN(C(=O)c3ccc(-c4ccccc4)cc3)CC2)cc1,-9.1%,1.6,4.1%[15.4 µM],1.2,5.5,x
NS(=O)(=O)c1ccc(CCNC(=O)CSc2cccs2)cc1,10.7%,0.2,u,-5.5,6.8,x
Cc1nnc(SC(C)C(=O)c2c[nH]c3ccccc23)n1C1CC1 (stereo unspecified),x,1.1,2.6%,x,-16.6,0.1%

Full records, looked up by structure. Order of screens: gsp antag	TRPML1 ag	gsp ag	Menin MLL FP FL	TRPML1 blocker	ClpP mod
`Cc1nnc(SC(C)C(=O)c2c[nH]c3ccccc23)n1C1CC1` (stereo unspecified) is entered as x	1.1	2.6%	x	-16.6	0.1%
`CC1CCc2c(sc(NC(=O)C3CCCO3)c2C#N)C1` (stereo unspecified) is entered as -1.9%	-0.5	-6.3%[15.4 µM]	2.4	-6.3	-1.3%
`O=C(COc1cccc2ccccc12)NCc1cccnc1` is entered as -4.1%	-1.4	2.2%[15.4 µM]	-0.9	4.8	0.8%
`COc1ccc(Nc2nc(N)c3ccccc3n2)c(OC)c1` is entered as -2.3%	-0.7	-62.5%[inhibitor]	-1.9	-4.2	x
`CC1(C(=O)NS(=O)(=O)c2ccc(Cl)cc2)CCN1C(=O)c1ccccc1` (stereo unspecified) is entered as x	0.1	x	x	25.8	0.7%

Remaining list, next part.
SMILES,gsp antag,TRPML1 ag,gsp ag,Menin MLL FP FL,TRPML1 blocker,ClpP mod
Fc1ccc2cc(CCO[C@H]3CCCCO3)ncc2c1,0.7%,-0.8,-14.8%,x,-0.3,-13.2%
COC(=O)C(CSCc1ccccc1)NC(=O)CCNC(=O)OCc1ccccc1 (stereo unspecified),x,-0.7,u,x,0.9,1.9%
CCOC(=O)C1CCC(CN(Cc2ccccc2)S(=O)(=O)c2ccc(Cl)cc2)CC1 (stereo unspecified),x,0.0,x,x,-19.4,-2.5%
CC(=O)Nc1cc(-c2ccccc2)ccc1O,-5.9%,0.3,-35.8%[inhibitor],-5.1,2.6,3.8%
CCOc1ccc(N2CC(C(=O)Nc3ccccc3F)CC2=O)cc1 (stereo unspecified),9.6%,-0.7,-0.2%,2.6,22.0,0.5%
Cc1ccc(C)c(NC2=NCC(=O)N2C2CCCCC2)c1,-19.8%,1.1,6.1%,4.3,-9.2,0.9%
COc1ccc(C(=O)NC(=S)N2CCNC(=O)C2)cc1Br,7.3%,-0.6,20.2%,-2.0,-5.9,-2.3%
COc1ccc(N2C(=O)C(CN3CCN(C)CC3)C2c2ccccc2)cc1 (stereo unspecified),6.0%,1.0,-1.2%,-2.8,27.0,-1.3%
Oc1ccc(-c2csc(Nc3cccnc3)n2)cc1,-12.4%,2.2,-25.3%,3.4,1.9,-1.0%
Cc1ccc(NC(=O)c2ccc(NC(=O)c3ccccc3)cc2)cc1C,7.2%,0.6,4.9%,x,-2.1,201.8%
N#Cc1c(C(F)(F)F)cc(C2CC2)nc1N1CCCC1,0.2%[15.4 µM],0.7,0.4%,u,-8.7,-2.5%
COc1ccc(CN(C(=O)CSc2nnc(-c3ccccc3F)o2)c2ccc(F)cc2)cc1,-11.4%,0.9,-2.4%,1.8,12.9,-4.6%
Cc1cc(C)n(C(=O)CN2C(=O)COc3ccccc32)n1,-2.4%,-0.4,-2.4%,0.5,-12.3,-0.9%
Cc1cc(C)cc(CC2CC(=O)N(c3cc(C)ccc3C)C2=O)c1 (stereo unspecified),7.8%,0.2,-27.0%[15.4 µM],-0.3,6.0,-0.4%
COc1ccc2[nH]cc(CCNC(=S)NC3CCCC3)c2c1,14.6%,0.2,3.7%[15.4 µM],-7.3,-4.6,x
COc1ccc(C(=O)CCC(=O)Nc2ccc(OC)c(Cl)c2)cc1,x,0.6,x,x,-12.9,-1.0%
O=C(Nn1cnnc1)c1ccc(F)cc1,-10.8%,1.1,-1.5%,2.5,24.0,-1.9%
CCNC(=O)NCc1c(C)c(C)n(Cc2ccccc2)c1-n1cccc1,-1.1%,2.2,14.4%,7.0,-2.1,x
COc1ccc2c(C)cc(SCC(=O)c3ccc4c(c3)OCO4)nc2c1,5.6%,2.4,-9.0%,0.5,-6.9,-1.2%
CC(C)C(=O)Nc1c2c(nn1-c1ccc(F)cc1)CS(=O)(=O)C2,2.4%,0.1,2.5%[15.4 µM],1.7,-29.7,x
CN(C)S(=O)(=O)c1cccc(NC(=O)Cn2cnc3ccccc3c2=O)c1,-2.4%,-0.9,20.1%,1.3,-5.8,-0.5%
CCN=C1S/C(=C\c2cc(Cl)c(OC)c(OC)c2)C(=O)N1CC,9.5%,1.8,1.1%,4.0,46.9,-18.2%
COc1cccc(C2/C(=C(/O)c3cnn(-c4ccccc4)c3C)C(=O)C(=O)N2CCN(C)C)c1 (stereo unspecified),10.8%,-0.7,u,0.8,3.5,-6.2%
Cc1ccc(C(OCC(O)CNC(C)c2ccccc2)c2ccccc2)cc1 (stereo unspecified),1.1%,0.6,9.4%[15.4 µM],-1.3,15.6,x
O=[N+]([O-])c1ccc(N/N=C2\CC3CC=CC23)cc1 (stereo unspecified),-14.9%,1.3,-14.5%,11.7,7.5,-1.5%
COc1ccccc1C(=O)Nc1sc2c(c1C(N)=O)CCCC2,-16.0%,-0.5,16.3%[15.4 µM],-0.8,-0.8,-0.7%
COC(=O)C(C)SC1=N/C(=C/c2ccc(-n3cncn3)cc2)C(=O)N1 (stereo unspecified),5.5%,0.9,-25.7%,5.6,-13.7,-9.8%
O=C(CN(C(=O)c1csnn1)c1ccccc1F)NC1CCCCC1,0.7%,-0.6,-0.7%,6.1,2.3,x
CCc1ccc(Nc2ncccc2C#N)cc1,15.9%,2.3,-21.2%,-2.2,-7.1,1.7%
Cc1ccc(CN(C(=O)c2ccccc2F)c2ccccn2)o1,x,-0.6,x,x,-10.2,-7.7%

Just TRPML1 blocker and gsp antag, for three of the compounds above:
| structure | TRPML1 blocker | gsp antag |
| --- | --- | --- |
| O=[N+]([O-])c1ccc(N/N=C2\CC3CC=CC23)cc1 (stereo unspecified) | 7.5 | -14.9% |
| COc1ccccc1C(=O)Nc1sc2c(c1C(N)=O)CCCC2 | -0.8 | -16.0% |
| COC(=O)C(C)SC1=N/C(=C/c2ccc(-n3cncn3)cc2)C(=O)N1 (stereo unspecified) | -13.7 | 5.5% |

Other records:
SMILES,gsp antag,TRPML1 ag,gsp ag,Menin MLL FP FL,TRPML1 blocker,ClpP mod
COc1ccc(C(=O)NC2CC2)cc1OC1CCN(Cc2ccc(F)cc2)CC1,-2.0%,-0.2,6.5%,x,9.9,-3.4%
N#C/C(=C/C1=C(N2CCOCC2)C(=C/c2ccccc2)/CC1)C(=O)Nc1ccccc1F,-5.6%,11.5,17.1%,x,1.0,x
CC(C)CCn1c(SCCN2CCOCC2)nc2c1c(=O)[nH]c(=O)n2C,12.8%,1.8,-3.8%,6.2,-6.2,1.0%
O=c1n(Cc2ccccc2Cl)c2ccccc2c2nc(-c3ccccc3)nn12,x,-0.4,x,x,-19.5,0.0%
Cc1cc(C)cc(NC(=O)Cn2c(=O)n(Cc3ccc4c(c3)OCO4)c(=O)c3oc4ccccc4c32)c1,x,-0.2,x,x,20.1,-7.3%
Cc1ccnc(NC(=O)CCCc2ccccc2)c1,0.9%,-0.4,6.8%,2.3,-2.8,0.7%
COc1cc(C)c(N(C(C)=O)c2ccccc2)c(C)c1,2.5%,0.3,-49.8%[inhibitor],3.5,-1.8,34.5%
O=C(CSc1nnc(C2CC2)n1C1CC1)c1ccc(F)c(F)c1,-1.4%,-1.5,-13.8%,x,34.0,1.8%
O=C(N/N=C/c1ccccc1O)NC12CC3CC(CC(C3)C1)C2,-25.1%,1.9,1.3%[15.4 µM],-0.7,-2.4,x
Cc1nc(SCC(=O)c2ccc(F)c(F)c2)[nH]c(=O)c1Oc1ccc(F)cc1,-2.2%,1.2,11.5%[15.4 µM],-0.2,-9.2,x
O=C(CSc1ncc(-c2ccccc2)nn1)NCc1ccco1,-4.8%,-0.5,u,1.1,12.4,0.3%
COc1ccc(OC)c(N(CC(=O)N2CCc3ccccc3C2)S(C)(=O)=O)c1,-6.7%,0.2,0.7%,0.6,6.8,-3.5%
CCc1ccc(NS(=O)(=O)c2c(C(=O)N3CCCCCC3)c(C)n(C)c2C)cc1,-2.1%,0.7,9.2%,-0.2,-4.9,0.5%
Cc1ccccc1OCC(=O)N(Cc1ccc(N(C)C)cc1)CC1CCCO1 (stereo unspecified),x,1.9,x,x,4.9,-1.3%
Cc1ccc2cccc(OCc3ccccc3)c2n1,4.0%,-0.1,-5.2%[15.4 µM],1.1,6.9,x
O=C(Nc1ccc(S(=O)(=O)Nc2cnc3ccccc3n2)cc1)c1ccc(Cl)c([N+](=O)[O-])c1,u,x,6.3%,-1.2,x,-4.8%
Cc1cc(C(=O)NC(Cc2ccccc2)C(=O)O)c(C)o1 (stereo unspecified),14.0%,1.7,0.4%[15.4 µM],1.4,34.2,x
N#Cc1ccc(Cl)cc1NC(=O)CSc1cccc[n+]1[O-],-18.5%,0.5,5.4%,x,-2.1,-8.0%
CC(=O)Cn1cnc2c(sc3nc(C)cc(C)c32)c1=O,1.1%,-0.1,-13.8%,0.7,3.8,x

Compound activity (PubChem)
